Compound activity deposited in PubChem BioAssay by National Center for Advancing Translational Sciences (NCATS).
D2 potentiator: positive allosteric modulators of human D2 dopamine receptor; 360,000 tested, 0.23% active; DiscoveRx D2 beta-arrestin cells, luminescence, 90 min; 100% = 57 uM dopamine signal; potentiation, % (test concentration not listed); active = potentiation of 50% or more; inconclusive = 30% to 50%; inactive = 30% or less;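 note: compound concentration not given in the record; tested on top of an EC20 dose of dopamine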
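PathHunter beta-arrestin assay in DiscoveRx D2 cells. Compounds were added with an EC20 of dopamine (50 nM final) for 90 min at 37 deg C. Luminescence was read 1 h after detection reagent, with 57 uM dopamine as the EC100 control.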
TRPV1 PAM: human TRPV1 potentiation. AID 540277. Q8NER1. TRPV1-expressing cells, Fluo-8 calcium influx, capsaicin EC20 potentiation; host cell line not named in the record; control for the full effect not named in the record. 320,000 tested, 0.02% active. potentiation, % at 8.33 µM; active means potentiation above 80%; inconclusive means 30% to 80%; inactive means below 30%; note: 0% is about no effect
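Cells expressing TRPV1 were dye-loaded with Fluo-8 and read kinetically: 10 s baseline, 3 min after compound (agonist portion), then 2 min after EC20 capsaicin (allosteric enhancer portion). Calcium-bound dye fluorescence at 480/520 nm.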
Six1-Eya2 blk: Six1/Eya2 interaction inhibition; AlphaScreen GST-Six1/His-Eya2 binding, biochemical; active compounds read low; control for the full effect not named in the record; Q15475+O00167; activity change, % (test concentration not listed); 360,000 tested, 0.56% active; in the data active = activity change below about -65%; inconclusive = about -30% to -65%; inactive = above about -30%; note: % is set by controls: 0 for no effect and ±100 for the full control effect
Target sequence (O00167 whole entry, looked up): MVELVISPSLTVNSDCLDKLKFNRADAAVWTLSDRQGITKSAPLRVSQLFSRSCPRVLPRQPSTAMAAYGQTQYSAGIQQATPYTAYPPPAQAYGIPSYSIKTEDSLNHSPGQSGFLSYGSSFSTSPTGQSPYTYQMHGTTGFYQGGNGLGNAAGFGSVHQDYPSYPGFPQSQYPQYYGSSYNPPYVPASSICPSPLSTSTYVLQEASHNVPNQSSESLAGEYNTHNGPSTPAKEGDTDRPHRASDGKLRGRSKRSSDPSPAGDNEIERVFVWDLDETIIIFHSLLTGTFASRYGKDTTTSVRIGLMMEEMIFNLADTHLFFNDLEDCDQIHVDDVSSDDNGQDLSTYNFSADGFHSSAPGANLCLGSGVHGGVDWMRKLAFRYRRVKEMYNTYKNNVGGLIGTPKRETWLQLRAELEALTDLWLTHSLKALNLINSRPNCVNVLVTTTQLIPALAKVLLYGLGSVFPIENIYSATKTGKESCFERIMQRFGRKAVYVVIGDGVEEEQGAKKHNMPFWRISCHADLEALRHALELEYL
Target sequence (Q15475 whole entry, looked up): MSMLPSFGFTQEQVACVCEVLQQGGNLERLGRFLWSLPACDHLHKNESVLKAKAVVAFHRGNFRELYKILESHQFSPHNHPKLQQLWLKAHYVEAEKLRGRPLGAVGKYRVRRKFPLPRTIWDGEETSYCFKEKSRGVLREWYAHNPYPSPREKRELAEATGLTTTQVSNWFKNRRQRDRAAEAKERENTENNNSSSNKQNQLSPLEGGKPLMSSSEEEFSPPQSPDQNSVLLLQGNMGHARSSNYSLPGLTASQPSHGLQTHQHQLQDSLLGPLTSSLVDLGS
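Homogeneous AlphaScreen proximity assay pairing GST-Six1 with His-tagged Eya2 (added as 5X mix: 250 nM and 500 nM) in 50 mM Tris pH 8.0, 300 mM NaCl, 1 mM TCEP. Glutathione donor and nickel acceptor beads; 1 h, 37 °C, dark.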
PINK1 modulator: PINK1 expression modulation | PINK1 immunofluorescence, high-content cytometry, 24 h | Potency, µM (highest dose often 76.6 µM), for inactives: at the top dose activation (PINK1 increase), hits mostly activators | 410,000 tested, 0.2% active | AID 624263; active = well fitted activation curve with a large enough effect; inconclusive = small, poorly fitted or top-dose-only effect; inactive = flat fitted curve, though single readings scatter; cell line not stated here;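 note: potency is the fitted concentration of half-maximal effect; % of control where 0% means no effect; nearly all actives have a fitted effect of over 65% in size; a mitochondrial uncoupler was the plate control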
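Compound titrations (5 concentrations, 24 h) on a stable cell line; DMSO and CCCP controls. Endpoint: fixed-cell PINK1 immunofluorescence with mitochondrial, cell and nuclear markers, scanned by microplate cytometer.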
CtBP-E1A inh: blocks the CtBP interaction with E1A. 340,000 tested, 0.49% active. activity change, % (test concentration not listed). AID 651724. AlphaScreen GST-E1A/His-CtBP binding, 1536-well; active compounds read low; control for the full effect not named in the record; in the data active means activity change below about -65%; inconclusive means about -30% to -65%; inactive means above about -30%; note: % is set by controls: 0 for no effect and ±100 for the full control effect
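GST-E1A and His-tagged CtBP (125 nM each as 5X stock) were preincubated with pin-transferred compound for 2 h at 37 °C in the dark, then glutathione donor and nickel acceptor beads were added for 1 h before AlphaScreen reading.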
D2 agonist: agonists of human D2 dopamine receptor (beta-arrestin); P14416; DiscoveRx PathHunter D2 beta-arrestin, luminescence, 90 min; 100% = 57 uM dopamine signal; activation, % (concentration not given with the values); 360,000 tested, 0.084% active; AID 624465; in the data active = activation above about 40%; inconclusive = about 15% to 40%; inactive = below about 15%; note: compound concentration not given in the record; the text of the record calls up to 30% inactive
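DiscoveRx PathHunter D2 beta-arrestin cells (2,100/well) attached overnight, then compound-stimulated 90 min at 37 C in HBSS/10 mM HEPES/0.1% Tween-20 buffer; beta-galactosidase complementation read by luminescence after 1 h at ambient temperature. Dopamine 57 uM final (EC100) as control.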
Sfp inh: inhibitors of Bacillus subtilis Sfp phosphopantetheinyl transferase; Biochemical Sfp PPTase activity, qHTS; Potency, µM, for inactives: max response, negative = inhibition, usual class: inhibitors; 310,000 tested, 3.5% active; AID 1490; active = well fitted inhibition curve with a large enough effect; inconclusive = small, poorly fitted or top-dose-only effect, or another doubt; inactive = no such curve, though single readings can be large or run the other way;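 note: the enzyme is Sfp with the accession as filed and its product quenches rhodamine fluorescence; potency is the fitted concentration of half-maximal effect; 0% = enzyme reaction without inhibitor and -100% = no enzyme wells; top concentration of the series not given in the record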
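With Hepes-Na pH 7.6 buffer containing 10 mM MgCl2, Sfp (15 nM) modified BHQ-2-YbbR (12.5 uM) using rhodamine-CoA (5 uM). Two reads 30 minutes apart at 525/598 nm yielded each well's rate.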
* = called active by the depositor; ? = inconclusive; · = not tested or not shown; [ ] = dose if it differs, or a comment. Compounds as they come, and some 3.7% of all compounds hit somewhere here.

The line under a structure holds: D2 potentiator, TRPV1 PAM, Six1-Eya2 blk, PINK1 modulator, CtBP-E1A inh, D2 agonist, Sfp inh
- COc1ccc(NC(=O)c2ccccc2N2C(=O)C3C4C=CC(C5CC45)C3C2=O)c(OC)c1 (stereo not drawn)
  -3, 4, 5, -1.3%, -10, 1.1, 3%
- CC(=O)N(Cc1cc2cc(C)c(C)cc2n2nnnc12)CC1COCCO1 (stereo not drawn)
  -4, -17, 5, -1.9%[38.3 µM], 8, -1.8, 8%
- FC(F)(F)c1cccc(N2CCN(CC3CC4C=CC3C4)CC2)c1 (stereo not drawn)
  -18, -15, -3, 3.2%[38.3 µM], -3, 0.8, -25%
- O=C(CSc1ncnc2nc[nH]c12)N1CCOCC1
  -11, 22, 1, 0.1%[38.3 µM], 23, -0.4, 17%
- CCCCOC(=O)C1=C(C)Nc2ncnn2C1c1ccc(OC)c(OC)c1 (stereo not drawn)
  -12, -8, -2, -0.3%, -2, -2.2, 8%
- Cc1ccc(C(=O)N2CCC(C(=O)c3c(C)cc(C)cc3C)CC2)cc1
  5, -7, 1, 0.2%, 2, 8.4, -7%
- C/C(=C\C(=O)c1ccc(Br)cc1)NNC(=O)c1ccc(O)cc1
  -9, -39, -3, 3.0%, -13, -9.1, 12%
- Oc1ccc2c(c1)oc1cc(O)ccc12
  -12, 6, -7, ?, -22, -1.2, -1%
- COCCCN1C(=O)C(CC(=O)NC2CC2)CC(C(=O)N2CCOCC2)=C1C (stereo not drawn)
  -1, ·, 26, 1.8%, 31, 1.9, ·
- Cc1cc(C)c(C(=O)OCCNC(=O)c2cccnc2)cc1C
  -14, -13, 4, 0.5%[38.3 µM], 7, 0.5, 16%
- CCOC(=O)C1=C(N)n2c(s/c(=C\c3cccnc3)c2=O)=C(C#N)C1c1cccnc1 (stereo not drawn)
  -5, ·, 8, ?, 16, 1.9, ·
- CCCCN1C[C@H](Cc2ccccc2)[C@@H](CC(=O)Nc2ccccc2)C1=O
  -15, 3, 13, 1.3%, -13, -2.2, 9%
- COc1ccc(N(C)S(=O)(=O)c2cccc(C(=O)NC3CCCC3)c2)cc1
  -1, -18, 4, -0.5%, 9, -3.9, 26%
- N=c1c(C(=O)NCCc2ccccc2)cc2c(=O)n3ccccc3nc2n1CC1CCCO1 (stereo not drawn)
  -6, -2, 2, -0.9%, 1, -8.9, -7%
- CN(C)c1ccc(NC(=O)CSCc2nc3c(nnn3Cc3ccc(F)cc3)c(=O)[nH]2)cc1
  13, 0, -13, 0.1%[38.3 µM], -6, 1.1, 21%

Other entries:
The line under a structure holds: D2 potentiator, TRPV1 PAM, Six1-Eya2 blk, PINK1 modulator, CtBP-E1A inh, D2 agonist, Sfp inh
- COC(=O)Cn1ccc(-c2ccc(Cl)cc2)c(C#N)c1=O
  -20, -1, 1, -0.5%, -5, 2.1, -3%
- O=C(CSc1nnc(-c2ccccc2F)n1C1CC1)Nc1ccc2[nH]c(=O)[nH]c2c1
  -10, 29, -3, -0.4%, ·, -2.5, 17%
- CC(C)NC(=O)COc1coc(CN2CCN(c3cccc(Cl)c3)CC2)cc1=O
  -3, 15, 4, -1.4%, 8, 1.6, 9%
- COCCNC(=O)C1(C)CCCN(Cc2ccc(Cl)c(Cl)c2)C1 (stereo not drawn)
  -6, ·, 5, 0.7%, 6, -6.3, ·
- O=C1CCC(/C=C/c2ccccc2)=NN1Cc1ccccc1
  -8, -15, 4, -0.1%, 4, -1.2, ?
- Cc1cc(NC(=O)C2CC2)ccc1NC(=O)c1cccs1
  -2, ?, 3, -1.1%, -24, -3.4, 12%
- Cc1cc(C(=O)OCC(=O)N2CC(=O)Nc3ccccc32)no1
  0, -9, 2, 0.6%[38.3 µM], 2, -0.4, 16%
- CCOC(=O)/C(=N\Nc1ccccc1Cl)N1CCN(C)CC1
  -23, 0, -2, 0.3%, -4, -6.5, 14%
- COc1ccc(NC(=O)CCc2nc(-c3ccc(C)cc3)no2)c(OC)c1
  -4, 5, -1, 19%, 1, -3.3, ?
- COC(=O)c1ccccc1NC(=O)CSc1nncn1-c1ccccn1
  -13, 3, -4, 1.2%, -8, -2.0, 9%
- Cc1ccccc1C(=O)N1CCC(C(=O)Nc2ccccc2N2CCCC2)CC1
  2, -7, -9, 1.4%, -13, -2.9, ·
- NC(=O)C1CC(=O)N(c2ccc(OCC(=O)Nc3cccc(C(F)(F)F)c3)cc2)C1 (stereo not drawn)
  -18, 2, 3, 1.8%, -2, -5.2, 11%
- COc1ccccc1CNC(=O)c1nccnc1CO
  9, 0, 3, -0.5%, 5, 1.9, 16%
- Cc1ccc(NC(=O)c2ccco2)c(NC(=O)c2ccc(Cl)cc2)c1
  -8, -1, -1, 1.2%, 0, 1.5, -5%
- O=C(CSc1nnc(Nc2ccccc2)s1)Nc1ccc(S(=O)(=O)N2CCOCC2)cc1
  -7, -1, -22, 0.7%, -8, 1.5, 20%

The list continues:
The line under a structure holds: D2 potentiator, TRPV1 PAM, Six1-Eya2 blk, PINK1 modulator, CtBP-E1A inh, D2 agonist, Sfp inh
- O=C(O)c1cccc(Nc2nc3ccccc3nc2NS(=O)(=O)c2ccccc2)c1
  -8, ·, -2, -1.4%, 2, -8.3, ·
- CCc1ccc(CN(C)C(=O)c2cc(COc3cncc(Cl)c3)on2)cc1
  -17, ·, 9, 1.7%, 2, -2.8, ·
- CCC1CCCCN1C(=O)CSc1nnc(CNC(=O)c2c(F)cccc2Cl)o1 (stereo not drawn)
  -10, -6, 1, -0.4%, -3, -7.5, 7%
- CCOc1ccc(NC(=O)c2cn(-c3ccc(OCC)cc3)c(=O)c3cc(OC)c(OC)cc23)cc1
  -8, 9, -16, -0.7%, -16, -1.9, 7%
- C/C(CC(=O)NCCCN1CCOCC1)=N\NC(=O)COc1cccc2ccccc12
  7, 13, -5, 0.2%, 3, -2.4, 1%
- CC1(C)CC(=O)C2=C(C1)N(c1ccc(F)cc1)C(=O)C2(NC(=O)c1ccccc1F)C(F)(F)F (stereo not drawn)
  -13, -18, -1, 6.4%, 13, -6.8, 20%
- Nc1ccc(Cl)c(S(=O)(=O)Nc2ccc(Cl)cc2)c1
  -4, -1, 2, -1.2%, -9, -1.6, 10%
- COc1ccc(COCC(O)CN2CCC(C(N)=O)CC2)cc1OC (stereo not drawn)
  -1, 9, 2, 2.0%, 4, 3.0, 13%
- Cc1cc(=O)oc2cc(OCC(=O)N3c4ccccc4CC3C)ccc12 (stereo not drawn)
  -3, -6, 14, 4.9%, -1, -3.8, -5%
- CCCCc1ccc(NC(=S)NCc2ccc(OC)cc2)cc1
  -8, 5, -11, 21%, ·, -2.2, 5%
- COc1cccc(C2=NC(C)(C)NC(c3ccccc3O)C2)c1 (stereo not drawn)
  -20, 5, -3, -4.1%, -7, -3.1, -5%
- Cc1ccc(CN2C(=O)CCSc3ccc(Cl)cc32)cc1
  -3, -2, -2, 0.3%, 0, -2.9, 3%
- O=C(COC(=O)C12CC3CC(CC(C3)C1)C2)Nc1nc2c(F)c(F)c(F)cc2s1
  -2, -13, 10, ?, 10, 0.8, -10%
- CCCn1c(CN2CCN(C(=O)OCC)CC2)nc2cc(NC(=O)CC)ccc21
  -4, -18, 2, 16%, -3, -1.2, 10%
- CC(C)COc1ccc2[nH]c3c(c2c1)CCCC3=O
  -7, 3, 11, -2.0%, -5, -0.4, 12%

Remaining list, next part.
The line under a structure holds: D2 potentiator, TRPV1 PAM, Six1-Eya2 blk, PINK1 modulator, CtBP-E1A inh, D2 agonist, Sfp inh
- COc1ccc(/C(C)=N/NC(=S)NCc2ccco2)cc1
  2, 8, ?, 1.5%, -11, 0.7, -3%
- CCOC(=O)c1ccc(N2C(=O)c3n[nH]c(C)c3C2c2ccc(OC)c(OC)c2)cc1 (stereo not drawn)
  -38, 4, -6, -2.9%, 0, -2.4, 12%
- COc1ccc(CCN(C)C(=O)c2cccc(S(=O)(=O)N3CCN(c4ccc(F)cc4)CC3)c2)cc1OC
  -4, ·, -16, 3.0%, ·, 4.9, ·
- Cc1ccccc1C(=O)N(C)[C@H]1C[C@H]2c3[nH]c4ccccc4c3CCN2C(=O)[C@H]1[C@H](C)O
  1, ·, -8, 0.5%, -2, -9.6, ·
- CCc1ccc(NC(=O)CCc2nc3sc4c(c3c(=O)[nH]2)CCCC4)cc1
  -4, ?, 3, 10%, 5, -3.8, ·
- COc1cc(OC)cc(C(=O)N[C@H](C(=O)OCC(=O)Nc2ccc(OC)c(OC)c2)C(C)C)c1
  -1, 3, -3, 1.1%, -1, 2.2, 4%
- Cc1ccc(C(=O)NNC(=O)C2CCN(c3nccc(C)n3)CC2)cc1
  -2, 10, 3, -5.2%[38.3 µM], -1, 0.1, 11%
- COc1ccc(S(=O)(=O)NCc2ccccc2)cc1
  -4, 1, 1, 0.7%, 9, -1.8, 18%
- O=C(c1cc(-c2cccs2)nn1-c1ccccc1)N1CCN(S(=O)(=O)c2ccccc2)CC1
  -35, 1, 21, -4.0%, 12, -4.3, ·
- O=C(Nc1nnc2n1CCS2)c1ccco1
  -4, 0, ?, 0.8%, ?, -1.7, 56µM*
- COc1ccc(-c2nnc(SCC(=O)N/N=C/c3ccccc3C(=O)O)n2-c2ccc(Cl)cc2)cc1
  -9, -1, -5, -0.3%, 0, -4.4, 2%
- Cc1noc(C)c1NC(=O)N(C)C[C@H]1Oc2ccc(NC(=O)Cc3ccccc3)cc2C(=O)N([C@H](C)CO)C[C@@H]1C
  -5, ·, 2, 1.5%, 0, -2.1, ·
- Cc1ccc2c(c1)C(c1ccccc1)N(C(=O)c1ccccc1[N+](=O)[O-])CC(=O)N2 (stereo not drawn)
  -6, -15, 3, -0.7%, -3, 0.3, 7%
- O=C1CC(C(=O)O)c2ccccc2N1 (stereo not drawn)
  6, -6, 3, 0.0%[38.3 µM], -5, 0.6, 13%
- Cc1ccc(C2CC(c3ccc(C)cc3)n3nc(N)nc3N2)cc1 (stereo not drawn)
  -2, -5, 2, 0.6%, 1, -0.8, 11%
